# GLA inh pH 4.5 = blocks human alpha-galactosidase A at pH 4.5 | purified enzyme, 4-MU-alpha-Gal fluorescence, pH 4.5 | activity change, negative = inhibition, % at 105 µM | 230,000 tested, under 10 active; inconclusive = small, poorly fitted or top-dose-only inhibition, or a rising curve; inactive = flat fitted curve, though single readings scatter; no compound was filed as active;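 further: 0% = full activity with enzyme and -100% = basal without enzyme; dose as in the result columns while the protocol names 77 µM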
# miR-21 FLuc = raises the signal of a miR-21 reporter; HeLa miR-21 FLuc reporter, luciferase, 48 h; Potency, µM (highest dose often 38.3 µM), without a hit: at the highest dose reporter change, positive = more light; 340,000 tested, under 10 active; AID 2288; active = well fitted rising curve with a large enough effect; inconclusive = small, poorly fitted or top-dose-only effect; inactive = no such curve, though single readings can be large or run the other way;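 further: % of control where 0% means no effect; miR-21 action dims this reporter so a rising signal means less miR-21 action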
#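 HeLa miR-21-FLuc reporter line, endogenous miR-21; 2000 cells/well in DMEM/10% FBS; compound titration up to ~40uM final, 48 h, 37 degree Celsius; luciferase detection reagent, 15 min lysis, CCD luminescence.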
# Rango complex inh = Rango-importin beta binding inhibition; Q14974; Potency, µM (doses to about 92.2 µM), inactives show top-dose inhibition of complex formation; AID 540263; hit rate 0.031% among 340,000; Rango CFP/YFP FRET sensor + importin beta, 45 min; active = rising FRET ratio curve, often small or poorly fitted; inconclusive = mostly compound fluorescence or quenching in the first reads; inactive = flat curves in all reads;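 further: potency means the concentration at half of the fitted maximal effect; 0% = DMSO wells and 100% = buffer wells lacking importin beta; nearly all actives have a fitted effect of over 15% in size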
# Target sequence (Q14974 whole entry, looked up): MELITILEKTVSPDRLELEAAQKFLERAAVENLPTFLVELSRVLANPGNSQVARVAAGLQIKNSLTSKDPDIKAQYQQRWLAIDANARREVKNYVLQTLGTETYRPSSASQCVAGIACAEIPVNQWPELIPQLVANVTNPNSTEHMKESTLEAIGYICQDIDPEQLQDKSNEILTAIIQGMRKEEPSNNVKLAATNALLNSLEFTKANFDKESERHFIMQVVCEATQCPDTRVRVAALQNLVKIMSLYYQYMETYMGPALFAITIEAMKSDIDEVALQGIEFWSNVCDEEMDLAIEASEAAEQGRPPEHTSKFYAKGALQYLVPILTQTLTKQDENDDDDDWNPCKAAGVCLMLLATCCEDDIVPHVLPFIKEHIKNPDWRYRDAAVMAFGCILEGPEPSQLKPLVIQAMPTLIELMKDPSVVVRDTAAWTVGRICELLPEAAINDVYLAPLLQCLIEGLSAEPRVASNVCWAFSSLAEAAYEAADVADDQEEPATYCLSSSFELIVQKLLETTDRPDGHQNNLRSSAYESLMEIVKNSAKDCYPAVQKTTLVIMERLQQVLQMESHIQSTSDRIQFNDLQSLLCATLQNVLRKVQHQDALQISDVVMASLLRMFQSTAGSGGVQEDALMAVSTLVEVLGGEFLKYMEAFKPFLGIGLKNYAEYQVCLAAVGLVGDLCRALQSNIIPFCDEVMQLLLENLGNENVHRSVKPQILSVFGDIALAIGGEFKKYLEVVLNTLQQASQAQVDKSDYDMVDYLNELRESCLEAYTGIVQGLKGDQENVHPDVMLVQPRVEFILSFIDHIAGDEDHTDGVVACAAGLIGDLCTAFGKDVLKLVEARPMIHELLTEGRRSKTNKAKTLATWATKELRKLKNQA
#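 FRET biosensor Rango (snurportin 1 IBB between N-terminal EYFP and C-terminal Cerulean), 50 nM in PBS/1 mM DTT/0.02% Tween-20/0.1% BSA, preincubated 5 min RT with compound; 0.125 microM importin beta added, 45 min RT, CFP/YFP FRET ratio read.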
# Rango release inh = inhibitors of RanGTP-induced Rango-importin beta complex dissociation; hit rate 0.071% among 340,000; Biochemical FRET Rango-importin beta, RanGTP-induced dissociation; Potency, µM (doses to about 46.1 µM), for the others: top-dose activity change, negative = inhibition; O95149+P62826; active means falling FRET ratio curve, often poorly fitted, with flat reads before Ran was added; inconclusive means other falling curves, or compound fluorescence or quenching; inactive means flat or rising ratio curve;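 further: potency means the concentration at half of the fitted maximal effect; % of control where 0% means no effect; nearly all actives have a fitted effect of over 45% in size; -100% = wells without RanGTP and RCC1; the record marks most hits as doubtful in a second field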
#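 Quantitative HTS using a FRET biosensor: 0.1 uM Rango, 0.25 uM importin beta, 0.6 uM Ran, 2 mM GTP, 0.2 uM RCC1 final, PBS with DTT, Tween-20 and BSA. Post-read taken 45 min after Ran addition.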
# * hit, by the source's call; ? = inconclusive; · = not tested or not shown; & = joins results of further samples.
GLA inh pH 4.5	miR-21 FLuc	Rango complex inh	Rango release inh	Molecule
7	-4%	-1.1%	2%	CCOc1ccc(NC(=O)C(=O)N/N=C/c2cccnc2)cc1
·	·	-3.7%	11%	COc1ccc(OC(C)C(=O)NCC2CCCO2)cc1 (configuration not stated)
·	16%&21%	-0.1%	0%	COCCn1c(=O)[nH]c2cc(C(=O)Nc3cccc(C(C)=O)c3)ccc2c1=O
·	-7%&-10%	0.5%	-15%	CCCn1c2ccccc2c2cnn(CC(=O)NCCCN3CCCCC3)c(=O)c21
1	0%	7.2%	20%	NC(=NCCc1ccccc1)NS(=O)(=O)c1cccs1
-7	-36%	-1.8%	4%	Cc1cnc(NC(=O)C2(c3ccccc3)CC2)s1
·	-9%	0.1%	-13%	COc1ccc(S(=O)(=O)CCC(=O)N2CCN(c3ccc(C(C)=O)cc3)CC2)cc1
9	-8%	4.3%	1%	COc1ccc(C(=O)N(c2ccccc2)C2C=CS(=O)(=O)C2)cc1 (configuration not stated)
4	-40%	-0.6%	1%	CCCCCCSC1=C(C#N)C(=O)NC2(CCCCC2)S1
-6	-6%	-0.8%	-17%	CC1(C)OC(=O)N(CCc2ccccc2)C1(C)O (configuration not stated)
·	·	0.4%	8%	O=S(=O)(c1ccccc1)N1CCN(Cc2ccccc2)c2ccccc21
6	-50%	-2.4%	24%	CCOc1ccc(-c2ccc(SCC)nn2)cc1
·	·	1.9%	23%	COc1ccccc1NS(=O)(=O)c1cccc(C(=O)N2CCCCCC2)c1
10	0%	-1.3%	-4%	Cc1ccc(C(C(=O)NCc2ccco2)N(C(=O)Cc2cccs2)c2cccnc2)cc1 (configuration not stated)
-16	-13%	?	-21%	Cc1ccc(CCP(=O)(O)CN2CCOCC2)cn1
-20	-35%	-0.4%	1%	Cc1ccc(NC(=S)c2nc3ccccc3s2)cc1
-2	-8%	-1.6%	-11%	N=c1c2c3c(sc2ncn1CCN1CCOCC1)CCCC3
·	2%	0.4%	-2%	COC1CCCN(C(=O)c2cccc(OC3CCN(S(=O)(=O)N(C)C)CC3)c2)C1 (configuration not stated)
5	0%	-5.0%	-2%	COC(=O)C1(C(F)(F)F)N=C2Sc3ccccc3N2C(N2CCOCC2)=N1 (configuration not stated)
·	-2%	-1.4%	11%	CCN(C(=O)c1cc([N+](=O)[O-])ccc1NCc1cccnc1)c1ccccc1
3	21%	6.4%	-9%	COc1ccc(-c2nn(-c3ccccc3)cc2/C=C/C(=O)NCCCn2ccnc2)cc1OC
·	·	2.6%	-5%	Cn1nc(C(=O)NNC(=O)c2cccc(Cl)c2)ccc1=O
·	·	-1.6%	13%	COc1cccc(OC)c1C(=O)Nc1ccccc1Sc1ccccc1
0	-13%	-1.2%	5%	COc1ccc(CCNC(=O)Cn2cccc2C(=O)c2ccccc2C)cc1OC
·	·	?	0%	COC(=O)N1CCc2c(sc(NC(=O)C3COc4ccccc4O3)c2C(N)=O)C1 (configuration not stated)
·	·	-4.6%	1%	Cc1noc(C)c1C(=O)OCC(=O)Nc1ncc(C(F)(F)F)cc1Cl
7	-2%	0.3%	0%	CCOc1ccc(N=C2NC(=O)S/C2=C\c2ccc(Cl)cc2)cc1
-4	3%	3.5%	-1%	Cc1onc(-c2c(F)cccc2Cl)c1C(=O)OCC(=O)c1c[nH]c2ccccc12
·	7%	5.3%	-1%	Cc1ccc(C2=NS(=O)(=O)N(C)C(C(=O)NCc3ccc(F)cc3)=C2)cc1
·	·	-5.2%	-2%	Cc1ccccc1OCC(=O)NNC(=O)C1CCN(c2ncnc3sc(C)c(C)c23)CC1
·	1%	-1.5%	7%	O=C(N/N=C/c1ccco1)c1ccc(NC(=O)c2ccc(Cl)cc2)cc1
-4	4%	-3.2%	-2%	Cc1nn(C)c(Cl)c1C(=O)NCC(=O)Nc1ccc(C(C)C)cc1
9	0%	18%	13%	C=C(C)c1cccc(C(C)(C)NC(=O)Nc2cc(C)ccc2OC)c1
1	-8%	-0.1%	10%	COc1ccc(C(=O)N2CCN(Cc3cc(OC)c(O)c(OC)c3)CC2)cc1OC
·	·	1.8%	4%	O=C(NCc1ccc(F)cc1)c1cc2c(cc1Cl)N1CCCCCC1=NS2(=O)=O
4	28%	-4.4%	-19%	O=C(c1cccc(S(=O)(=O)N2CCCC2)c1)c1cccc(S(=O)(=O)N2CCCC2)c1
·	·	0.7%	-24%	CCCCN(C(=O)c1cccc(S(=O)(=O)N(CC)c2ccccc2)c1)c1c(N)n(CCCC)c(=O)[nH]c1=O
-1	2%	-1.1%	3%	O=C(NNc1cccc(Cl)n1)Nc1ccc(Cl)cc1
11	1%	-0.4%	4%	O=C(Nc1ccc(Oc2ccccc2)cc1)c1cnc2n(c1=O)CCS2
1	-1%	2.7%	15%	CCOc1ccc2nc(SCC(=O)Nc3ncccn3)[nH]c2c1
·	·	-1.5%	-3%	COCCNC(=O)C1CC(c2ccc(C(F)(F)F)cc2)=NO1 (configuration not stated)
·	·	-0.2%	7%	CCC(C)c1ccc(NC(=O)C2=CC=CN3CCS(=O)(=O)N=C23)cc1 (configuration not stated)
17	-2%	0.1%	28%	COc1ccccc1N1CCN(C(CNC(=O)C2CCCCC2)c2cccnc2)CC1 (configuration not stated)
4	-1%	2.3%	-9%	CC#CC[N+](C)(C)CCCCCC
2	-8%	2.5%	3%	COC(=O)c1ccc(CN(C)S(=O)(=O)c2ccc(C)cc2)o1
·	1%	-2.3%	-13%	COc1ccc(CNC(=O)C2CCN(S(=O)(=O)c3cccc4nsnc34)CC2)cc1
·	-14%	-2.4%	6%	N#Cc1ccc(-c2ccc(OCC3CNC(=O)O3)cc2)cc1 (configuration not stated)
-21	24%	-1.1%	0%	CCC(C)c1ccc(O)c(NC(=O)c2cncc(Br)c2)c1 (configuration not stated)
7	-24%	6.4%	1%	O=C(N/N=C/c1ccc(OCc2cnc(Cl)s2)cc1)c1ccncc1
18	1%	-8.5%	-21%	O=C(NCCN1CCOCC1)C1CCC(=O)N1C1CCCCC1 (configuration not stated)
-10	-10%	-2.0%	-20%	COc1ccc(NC(=O)c2cc(Br)ccc2Cl)c([N+](=O)[O-])c1
6	-1%	·	·	Cn1c(=O)c2c(nc(CN3CCN(Cc4ccccc4)CC3)n2Cc2ccccc2)n(C)c1=O
·	·	9.8%	-6%	CCC(=O)NC(c1ccco1)c1cc(Cl)c2cccnc2c1OC (configuration not stated)
-8	-3%	-0.4%	-6%	COc1ccc(CC(=O)NNC(=O)CSc2nnc(C)n2-c2ccccc2)cc1
5	-24%	-1.4%	-1%	Cc1ccc2c(Cl)c(C(=O)NCc3cccnc3)sc2c1
-6	2%	-0.6%	1%	CCC(=O)N(C)C(c1ccccc1Cl)c1nnnn1-c1c(C)cccc1C (configuration not stated)
·	·	-1.2%	6%	CC1(C)SC2c3ccccc3C(=O)N2C1C(=O)O (configuration not stated)
-6	2%	14%	-8%	COc1ccc(N2CCN(CC(O)c3c[nH]c4ccc(OC)cc34)CC2C)cc1 (configuration not stated)
-20	14%	-2.0%	-11%	N#Cc1c(NC(=O)CSc2n[nH]c(N)n2)oc(-c2ccccc2)c1-c1ccccc1
-5	-23%	-0.3%	20%	Cc1cc(C)nc(NC(=O)/C=C/c2ccc(Cl)cc2)n1

# Sorted by molar mass (rising): some entries from above
GLA inh pH 4.5	miR-21 FLuc	Rango complex inh	Rango release inh	Molecule
-4	4%	-3.2%	-2%	Cc1nn(C)c(Cl)c1C(=O)NCC(=O)Nc1ccc(C(C)C)cc1
-6	2%	-0.6%	1%	CCC(=O)N(C)C(c1ccccc1Cl)c1nnnn1-c1c(C)cccc1C (configuration not stated)
-8	-3%	-0.4%	-6%	COc1ccc(CC(=O)NNC(=O)CSc2nnc(C)n2-c2ccccc2)cc1

# Going on with the list.
GLA inh pH 4.5	miR-21 FLuc	Rango complex inh	Rango release inh	Molecule
·	·	-2.2%	-21%	Cc1ccc(C(=O)OCC(=O)N2c3ccccc3NC(=O)C2(C)C)cc1S(=O)(=O)N1CCCCC1
-19	1%	1.9%	-7%	CC1CN(c2ccc([N+](=O)[O-])cn2)CC(C)O1 (configuration not stated)
6	-1%	-2.9%	-7%	O=C(CSc1nnc(Cc2ccccc2)o1)c1ccc(F)cc1
-3	-1%	-3.7%	2%	COc1ccc(C2C(C#N)=C(N)Oc3cc(C)[nH]c(=O)c32)cc1OC (configuration not stated)
0	1%	-1.3%	0%	CCc1nnc(NC(=O)c2cccc(S(=O)(=O)N(C)c3ccccc3)c2)s1
·	-37%	1.3%	0%	Cc1ccnc(NC(=O)c2cccc3ccccc23)c1
·	·	-3.3%	-8%	CC(NC(=O)c1ccccc1)C(=O)OCC(=O)c1c(N)n(C)c(=O)n(C)c1=O (configuration not stated)
-1	-45%	-3.0%	-22%	COc1c(Cl)cccc1-c1cn2ccc(C)cc2n1
9	5%	-1.3%	-3%	COc1cc(C2C3=C(Nc4nc(N)[nH]c(=O)c42)c2ccccc2C3=O)ccc1O (configuration not stated)
·	·	-1.6%	-5%	O=C(Cc1ccccc1)c1ccc(O)cc1O
9	1%	2.3%	-10%	COc1ccc(OC)c(/C=N\NC(=O)c2ccc(=O)n(C)c2)c1
6	3%	2.1%	-2%	Cc1ccc(-c2noc(CCC(=O)Nc3ccccc3N3CCN(C)CC3)n2)cc1
·	·	-2.5%	1%	Cc1ccc(C)c(OCC(=O)NCC(C)(C)N2CCOCC2)c1
6	-2%	10%	7%	Cc1ccccc1C(=O)Nc1ccccc1-n1cccc1
·	0%	-0.7%	0%	CCN(CC)CCCNC(=O)c1ccc(CS(=O)(=O)c2ccccc2OC)o1
·	·	-8.4%	10%	CC1Cc2ccccc2N1S(=O)(=O)c1cccc(C(=O)NCc2ccco2)c1 (configuration not stated)
-3	-6%	-3.1%	3%	Cc1cc(C)nc(SCC(=O)c2ccc(O)cc2O)n1
-11	-25%	-3.4%	2%	Cc1cccc(C(=O)NNC(=O)c2ccc(F)cc2)c1
3	-1%	-0.3%	-10%	O=C(CN1CCN(c2ccccc2O)CC1)NC(=O)NC1CCCC1
·	20%	5.6%	8%	C(=N\N(c1ccccc1)c1ccccc1)/c1ccccn1
14	7%	-0.2%	1%	O=C(Oc1ccc2ccc(=O)oc2c1)N1CCOCC1
1	-3%	-1.1%	12%	COc1ccc(S(=O)(=O)N2CCCCC2)cc1
-3	0%	3.2%	5%	O=C(Cn1cnc2c(nnn2Cc2ccc(Cl)cc2)c1=O)N1CCCc2ccccc21
3	1%&-3%	1.7%	6%	CCOC(=O)c1cc(OC(=O)c2ccccc2OC)n(-c2ccccc2)n1
·	-1%	3.7%	-11%	CN(Cc1cccc(C(F)(F)F)c1)C(=O)C1CCC(=O)N(CC2CCCCC2)C1 (configuration not stated)
6	11%	-3.6%	11%	Cc1c(C(=O)NC(=S)Nc2ccc(NC(=O)c3cccs3)cc2)oc2ccccc12
13	-1%	-1.0%	-18%	CCC(C)N1C(=O)N(C)C2NC(=O)NC21 (configuration not stated)
·	·	?	-18%	COc1ccc(NS(=O)(=O)c2cc(OC)ccc2OC)cc1
-7	5%	-0.5%	10%	CCOC(=O)C1(CCCc2ccccc2)CCN(Cc2cnn(C)c2)CC1
·	-4%	0.9%	8%	COc1cc(C(=O)NCCCOC(C)C)ccc1OC1CCN(C(C)=O)CC1
-6	?	4.3%	8%	CCCCCc1cc(=O)oc2c(C(CCN3CCCC3)c3ccc(N(C)C)cc3)c(OC)cc(OC)c12 (configuration not stated)
?	0%	?	?	Cc1ccc(-c2cc(-c3ccccc3)c(C#N)c(N)n2)o1
-15	7%	-1.0%	-13%	O=C(NCc1cccs1)c1cccn2c(=O)c3sccc3nc12
·	·	0.9%	-1%	COc1ccc(NC(=O)CC2(CC(=O)N3CCOCC3)CCCC2)cc1Cl
5	-1%	-3.1%	0%	O=C(NCc1n[nH]c(=S)n1-c1cccc(Cl)c1)c1ccc(S(=O)(=O)N2CCCC2)cc1

# An excerpt of these results, with bars between the fields:
canonical_smiles | GLA inh pH 4.5 | miR-21 FLuc | Rango complex inh | Rango release inh
CCCCCc1cc(=O)oc2c(C(CCN3CCCC3)c3ccc(N(C)C)cc3)c(OC)cc(OC)c12 (configuration not stated) | -6 | ? | 4.3% | 8%
Cc1ccc(-c2cc(-c3ccccc3)c(C#N)c(N)n2)o1 | ? | 0% | ? | ?
O=C(NCc1cccs1)c1cccn2c(=O)c3sccc3nc12 | -15 | 7% | -1.0% | -13%

# This is a subset; count on the stated rates, not on these rows.
